StopGo FLuc: Primary qHTS Assay for Foot and Mouth Disease Virus Antivirals against NCGC Sytravon and CBC Compound Libraries: Firefly Luciferase Signal; HEK cells with a luciferase reporter of 2A StopGo recoding; Potency, µM (series often up to 57.5 µM), for the others: at the top dose signal change, negative = less light; 120,000 compounds, 0.23% hits; active = well fitted falling curve with a large enough effect; inconclusive = small, poorly fitted or top-dose-only effect; inactive = no such curve, though single readings can be large or run the other way; note: nearly all actives have a fitted effect of over 60% in size; overnight with compound
2A Renilla: Primary qHTS Assay for Foot and Mouth Disease Virus Antivirals against NCGC Sytravon and CBC Compound Libraries: Renilla Luciferase Signal | Potency, µM (titrated, usually from 57.5 µM), for the others: at the highest dose signal change, negative = less light | AID 1745857, 2022 | HEK cells with a luciferase reporter of 2A StopGo recoding | 120,000 compounds, 0.32% hits; active means well fitted falling curve with a large enough effect; inconclusive means small, poorly fitted or top-dose-only effect; inactive means no such curve, though single readings can be large or run the other way; note: nearly all actives have a fitted effect of over 55% in size; overnight with compound
Numbers without * were called inactive; ? = inconclusive; & = joins results of further samples; [ ] = remark or other dose. % is set by controls: 0 for no effect and ±100 for the full control effect; potency is the fitted concentration of half-maximal effect.

SMILES	StopGo FLuc	2A Renilla
Cc1ccc(-n2ncc3c(NCCC4=CCCCC4)ncnc32)cc1	49%[activator]	-19%
Cc1ccccc1-c1nnc(SCC(=O)Nc2ccccc2)o1	0%	-3%
COc1ccccc1CNC(=O)C(=O)NCC(c1ccc2c(c1)OCO2)N1CCOCC1 (stereo not given)	-15%	-10%
Cc1ccc(S(=O)(=O)c2nc(-c3cccs3)oc2SCC(=O)Nc2cc(C)cc(C)c2)cc1	-5%	1%
CCCc1nccn1S(=O)(=O)c1cc(Br)ccc1OC	14%	88%[activator]
NC(=O)Cc1cccc(C(=O)c2ccccc2)c1N	0%[11.5 µM]	7%
CCc1ccccc1NC(=O)Cn1nnc2sc3c(c2c1=O)CCC(C(C)(C)C)C3 (stereo not given)	?	-9%
CCOc1ccc(CCNC(=O)Cn2ccc3cc(S(=O)(=O)N4CCCCCC4)ccc32)cc1	?	20%
O=S(=O)(NCCc1csc(-c2ccc(F)cc2)n1)c1ccc(Cl)cc1	?	129%[activator]
O=C(CCC(=O)c1cccs1)Nc1ccc(N2CCOCC2)cn1	70%[activator]	26%
N#Cc1cccc(C(=O)Nc2cccc(OC3CCCC3)c2)c1	-14%	51%[activator]
O=C(Nc1nc2cc3c(cc2s1)OCCCO3)c1cccc(Cl)c1Cl	-37%	?
CC(C)CCNC(=O)C1(NC(=O)NCc2ccccc2)CCCC1	6%	30%[activator]
CCOc1cccc2cc(-c3nc(-c4ccc(OC)c(F)c4)no3)c(=O)oc12	14%	14%
CCC1CCCCN1CCCNC(=O)c1ccc2c(c1)N(Cc1cccc(Cl)c1)C(=O)c1ccccc1S2(=O)=O (stereo not given)	-30%	35%
CCOc1ccccc1NC(=O)CSc1nc2c(oc3ccccc32)c(=O)n1C(C)C	-18%	-8%
CC1Cc2c(nc(Cl)c(C#N)c2C#N)C([N+](=O)[O-])([N+](=O)[O-])C1 (stereo not given)	?	?
CC(C)(C)c1cc(NC(=O)CS(=O)(=O)c2ccc(F)cc2)on1	36%[activator]	37%[activator]
COc1ccccc1N(CC(=O)Nc1ccccc1F)S(C)(=O)=O	-5%	12%
Cc1cc(C)cc(C(=O)OCCCN(C)C2CN(Cc3cn(Cc4ccccc4F)nn3)S(=O)(=O)C2)c1 (stereo not given)	-22%	-18%
CCn1c(=O)c2cc(C(=O)N(C)c3cc(C)ccc3C)sc2c2ccccc21	0%	-17%
Cc1c(CCC(=O)NCc2cccc(Cl)c2)c(=O)oc2c(C)c(O)ccc12	-2%	-1%
Cc1ccc(-c2nc(-c3cccs3)c(-c3cccs3)[nH]2)cc1	-5%	-9%
Cc1ccc2oc(C(=O)Nc3ccc(S(=O)(=O)N(C)c4ccccc4)cc3)cc(=O)c2c1	-13%	-11%
CCc1ccc(NC(=O)C2CCN(c3nnc(-n4c(C)ccc4C)s3)CC2)cc1	0%	-24%
CCCc1cc(=O)oc2cc(OS(=O)(=O)c3ccccc3F)ccc12	139%[activator]	33%[activator]
N#Cc1nc(COc2cccc(Cl)c2)oc1N1CCCC1	25%	-1%
CCOC(=O)c1ccccc1NC(=O)CN1C(=O)CC(c2ccccc2)Sc2ccccc21 (stereo not given)	7%	269%[activator]
CC1CCN(S(=O)(=O)c2ccc3c(c2)C(C)(C)C(=O)N3CC(=O)NCc2ccco2)CC1	-13%	156%[activator]
Cn1c(SCC(=O)Nc2cc(S(=O)(=O)N3CCCCCC3)ccc2Cl)nnc1C1CC1	-14%	29%
O=C(CCN(Cc1ccco1)C1CCCC1)Nc1ccccc1	-6%	20%
COc1cc(C(C)=O)ccc1SCC(=O)O	-7%	3%
CN(Cc1ccccc1)c1nc2c(c(=O)[nH]c(=O)n2C)n1CCSc1nc2ccccc2[nH]1	11%	8%
CCOc1cc2ccccc2cc1C(=O)Nc1nnc(CC)s1	10%	4%
CC1CCc2c(sc3nc(-c4cc5ccccc5oc4=O)nc(Cl)c23)C1 (stereo not given)	24%	-12%
Cc1ccc(CNC(=O)Cc2c(C)c3cc(Cl)c(O)cc3oc2=O)cc1	14%	-3%
CN(Cc1cccs1)C(=O)c1ccc2ccccc2c1	214%[activator]	125%[activator]
Cc1ccsc1C(=O)OCC(=O)NC(=O)NC(C)C	39%[activator]	-3%
COc1ccc(Cl)cc1-n1nnc(C(=O)Nc2ccc3c(c2)C(=O)OC3)c1C	-2%	-3%
NC(N)=NC(N)=Nc1ccc(Cl)cc1	-3%	-9%
COc1ccc(N(CC(=O)N2CCN(C)CC2)S(=O)(=O)c2ccccc2)cc1Cl	-9%	11%
COc1ccc2c(c1)CCC/C2=N\OC(=O)c1cc(Cl)ccc1OC	0%	21%
Cc1ccc(CNC(=O)CSc2ccc(-c3sc(-c4ccccc4)nc3C)nn2)cc1	-1%	16%
CCN(CC)c1ncc(C=O)s1	12%	-5%
O=S(=O)(Nc1cccc(-c2ccc(N3CCCCCC3)nn2)c1)c1ccc(F)cc1	108%[activator]	108%[activator]
CCc1ccc(N(CC)C(=O)CCn2cnc3onc(-c4ccc(F)cc4)c3c2=O)cc1	-8%	-6%
Clc1cccc(-c2nnc3sc(Cn4cccn4)nn23)c1Cl	0%	12%
Cc1ccc(S(=O)(=O)N2CCN(C(=O)CN3CCCCC3)C2c2ccccc2)cc1 (stereo not given)	6%	26%
CCOC(=O)c1c(C)[nH]c(C)c1S(=O)(=O)N1CCC(C(=O)NCc2cccc(OC)c2)CC1	-11%	11%
Cc1ccc(C2C=C(c3ccccc3)Nc3nc(NS(=O)(=O)c4ccccc4)nn32)cc1 (stereo not given)	12%	-9%
Cc1cc(COc2ccc(S(=O)(=O)c3ccccc3)cc2)on1	-4%	9%
CN(C)S(=O)(=O)c1ccc(=O)n(Cc2ncc(-c3ccc(F)cc3)o2)c1	12%	-10%
CCSc1nc(-c2ccccc2Cl)nc2c1Cc1c(CO)cnc(C)c1O2	21%	17%
N#CCOc1ccc2c(=O)c(-c3ccc(Br)cc3)c(C(F)(F)F)oc2c1	110%[activator]	-21%
COc1ccc(-c2cc(C(=O)NCCCN3CCOCC3)c3ccccc3n2)cc1OC	10%	-2%
CC1(C)CC(=O)C2=C(C1)OC(N)=C(C#N)C2c1ccc(-c2ccccc2)cc1 (stereo not given)	4%	-5%
CC(=O)c1cc(-c2ccccc2)n(CCC(=O)NC2CCCCC2)c1C	12%	-11%
CCOC(=O)c1ccccc1NC(=O)COc1cc(=O)n(CC)c2ccccc12	-6%	2%
Cc1ccc(C(=O)NCc2ccc(F)cc2)cc1NC(=O)c1nsc2ccccc12	52%[activator]	19%
O=C(Nc1ccc(-c2nc3cc(NC(=O)c4ccccc4F)ccc3o2)cc1)c1ccccc1F	-1%	5%

Next structures follow.
SMILES	StopGo FLuc	2A Renilla
CC(=O)Nc1ccc(NC2=C(C(=O)Nc3ccc(C)cc3)S(=O)(=O)c3ccccc32)cc1	217%[activator]	74%[activator]
O=C(CCc1nc(-c2ccccc2)no1)N1CCc2sccc2C1c1cccs1 (stereo not given)	7%	22%
Cc1cnc(NC(=O)c2[nH]c3c(c2C)C(=O)CCC3)s1	47%[activator]	6%
CCOc1ccc(CNCc2ccco2)cc1OCC	0%	2%
O=C(C(Cc1ccccc1)N/C=C/C(=O)C(F)(F)F)N1CCN(CCc2ccccc2)CC1 (stereo not given)	-16%	-12%
O=C(NCCS(=O)(=O)N1CCN(c2ccccc2F)CC1)C(c1ccccc1)c1ccccc1	-21%	-8%
N#Cc1nc(-c2ccc(S(=O)(=O)N3CCCCCC3)cc2)oc1NCc1ccc2c(c1)OCO2	4%	21%
COc1ccc(C(=O)Nc2cccc(OCc3cc(=O)n4c5c(sc4n3)CCCC5)c2)cc1OC	40%[activator]	-5%
CC1(C)Cc2cccc(OCC(=O)OCC(=O)Nc3ccc(F)c(F)c3)c2O1	5%	-2%
O=C(O)CC12CC3CC(C1)CC(CC(=O)O)(C3)C2	10%	7%
CCc1cccc(Nc2nc3c(S(=O)(=O)c4ccccc4)nnn3c3ccsc23)c1	0%	31%[activator]
O=c1cc(-c2ccccc2)n2c(SCc3ccc(Br)cc3)nnc2[nH]1	-15%	-7%

One compound at a time (already shown). Order of values: StopGo FLuc, 2A Renilla
`CC1(C)Cc2cccc(OCC(=O)OCC(=O)Nc3ccc(F)c(F)c3)c2O1` across the screens: 5%, -2%
`O=c1cc(-c2ccccc2)n2c(SCc3ccc(Br)cc3)nnc2[nH]1` across the screens: -15%, -7%

The main list resumes; the seven compounds before the break are reprinted first.
SMILES	StopGo FLuc	2A Renilla
O=C(NCCS(=O)(=O)N1CCN(c2ccccc2F)CC1)C(c1ccccc1)c1ccccc1	-21%	-8%
N#Cc1nc(-c2ccc(S(=O)(=O)N3CCCCCC3)cc2)oc1NCc1ccc2c(c1)OCO2	4%	21%
COc1ccc(C(=O)Nc2cccc(OCc3cc(=O)n4c5c(sc4n3)CCCC5)c2)cc1OC	40%[activator]	-5%
CC1(C)Cc2cccc(OCC(=O)OCC(=O)Nc3ccc(F)c(F)c3)c2O1	5%	-2%
O=C(O)CC12CC3CC(C1)CC(CC(=O)O)(C3)C2	10%	7%
CCc1cccc(Nc2nc3c(S(=O)(=O)c4ccccc4)nnn3c3ccsc23)c1	0%	31%[activator]
O=c1cc(-c2ccccc2)n2c(SCc3ccc(Br)cc3)nnc2[nH]1	-15%	-7%
O=c1oc2ccccc2cc1-c1nc(-c2cccc(Cl)c2)cs1	-23%	-16%
Cc1c(C(=O)O)sc(=S)n1C	5%&-7%	-5%&5%
Cc1ccc(Nc2cc(C)nc3nc(Cc4ccc(Cl)cc4)nn23)cc1	-22%	-17%
CCOc1ccc(S(=O)(=O)Nc2cc(C(=O)N(C)CC(=O)NC)ccc2N2CCNCC2)cc1	-1%	-15%
COc1cccc(CNC(=O)C(C)n2ccc3cc(S(=O)(=O)N4CCCCCC4)ccc32)c1 (stereo not given)	-24%	137%[activator]
COc1ccccc1NC(=O)CCn1c(=O)oc2cc(Cl)ccc21	12%	5%
N#C/C(=C\c1ccc(-c2cccc(Br)c2)o1)c1nc2ccccc2[nH]1	0%	12%
CCOc1cc(CNc2ccc(C(=O)O)cc2)ccc1OCc1ccccc1	0%	12%
O=C(Cn1c(=O)oc2cc(S(=O)(=O)N3CCCCCC3)ccc21)c1ccc(Cl)cc1	-3%	0%
Cn1cc(S(=O)(=O)N2CCCCCC2)cc1C(=O)N1CCN(c2ccccc2F)CC1	-3%	-4%
O=C(NCCc1ccc(F)cc1)C(=O)NCC(c1cccs1)S(=O)(=O)c1ccc(F)cc1 (stereo not given)	?	?
CCCCOc1ccc(C(=O)NCc2cn3cccc(C)c3n2)cc1	-13%	-9%
CC(=O)c1ccccc1NC(=O)C1(c2ccccc2)CC1	20%	13%
Cc1cccc(OCc2ccc(-c3nc(C#N)c(NCc4cccnc4)o3)o2)c1	?	?
COc1ccc(Cc2nnc(NC(=O)c3cccc(NC(=O)c4ccccc4)c3)s2)cc1	0%	-16%
CCOc1cc(CNc2ccc(O)cc2)ccc1OCc1ccc(Cl)cc1	36%	5%
N#Cc1nc(-c2cccs2)oc1NCCN1CCCCC1	-9%	-15%
O=c1cc(COc2cccc(C(F)(F)F)c2)nc2sc3c(n12)CCCC3	-1%	1%
CC(C)c1nc2sc3c(N4CCCCC4)ncnc3c2c2c1CCCC2	-9%	-10%
CCc1ccccc1NC(=O)c1cc(-c2ccc(OC)cc2)on1	19%	23%
NS(=O)(=O)c1ccc(NC(=O)C2CCn3c(C(=O)c4ccccc4)ccc32)cc1 (stereo not given)	12%	6%
CCN(CC)CCNC(=O)c1nn(C)c2c1CS(=O)(=O)c1ccccc1-2	-20%	-13%
CCc1ccc(NC(=O)c2nc3ccccc3nc2N(CC)CC)cc1	21%	19%
COC(=O)c1ccc(OCC2c3cc(OC)c(OC)cc3CCN2C(=O)c2cccc(C)c2)cc1 (stereo not given)	-24%	-7%
Cc1ccc(-c2noc(-c3cccn3CC(=O)N3CCc4ccccc43)n2)cc1	4%	8%
CC(C)CC(=O)NCC(c1ccc2c(c1)OCO2)N1CCN(c2ccc(F)cc2)CC1 (stereo not given)	-16%	15%
C1CCN2C[C@@H]3C[C@@H](CN4CCCC[C@@H]34)[C@H]2C1	0%[11.5 µM]	-6%
Cc1cccc2sc(N(Cc3cccnc3)C(=O)CCOc3ccccc3)nc12	-15%	-10%
O=C(CN1C(=O)c2ccccc2S1(=O)=O)c1ccc(Cl)cc1Cl	?	-12%
CC(=O)Nc1nonc1-c1nnc(SCc2ccc(Cl)cc2)n1C	-11%	-3%
CCn1c(C(=O)NCc2ccc(C)cc2)cc2sc(Cl)cc21	-15%	3%
Cc1cccc(NC(=O)C2CCN(S(=O)(=O)c3ccc4[nH]c5c(c4c3)CCCCC5)CC2)c1	-24%	?
CC1(c2ccccc2)NC(=O)N(NC(=O)c2nn(-c3ccccc3)c(=O)c3ccccc23)C1=O (stereo not given)	-5%	5%
NC(=S)NNC(=O)Nc1ccccc1	?	-3%
CCC(NC(=O)c1ccc(OC)c(OC)c1)c1cccs1 (stereo not given)	26%	3%
COc1ccccc1CNC(=O)c1cc2c(=O)oc3ccc(C)cc3c2s1	-4%	-2%
COc1ccc2oc(=O)c(S(=O)(=O)N3CCC(C)CC3)cc2c1	-7%	-5%
Cc1c(CNCCc2c[nH]c3ccccc23)c(C(=O)O)c(C)n1Cc1ccc(Cl)cc1	-24%	-12%
Cc1cccc(C)c1NS(=O)(=O)c1cccc(C(F)(F)F)c1	11%	98%[activator]

Screens: PubChem, National Center for Advancing Translational Sciences (NCATS)

A portion of the library; rates above refer to the full screens.
